Source: PubChem BioAssay (National Center for Advancing Translational Sciences (NCATS))
StopGo reporter – lowers the luciferase signal of an FMDV 2A StopGo reporter | 410,000 compounds, 1.2% hits | AID 1159524 | Potency, µM (highest dose often 57.9 µM), inactives show top-dose signal change, negative = less light | human cells with a luciferase reporter of 2A StopGo recoding; control for the full effect not named in the record; active = well fitted falling curve with a large enough effect; inconclusive = small, poorly fitted or top-dose-only effect; inactive = no such curve, though single readings can be large or run the other way; tested in HEK293T cells; further: on the % scale 0 is the no-effect control and ±100 the full control effect; nearly all actives have a fitted effect of over 45% in size; luciferase light after 4 h
LASV entry inh – blocks Lassa virus binding to or entry into cells | 300,000 compounds, 1.2% hits | Lassa virus pseudotype entry inhibition, cell reporter; control for the full effect not named in the record | Potency, µM (highest dose often 37.9 µM), for the others: top-dose activity change, negative = inhibition, usual class: inhibitors | AID 540256; active means well fitted inhibition curve with a large enough effect; inconclusive means small, poorly fitted or top-dose-only effect, or effect the other way; inactive means flat fitted curve, though single readings scatter; tested in HEK293 cells; further: on the % scale 0 is the no-effect control and ±100 the full control effect; nearly all actives have a fitted effect of over 50% in size; luciferase read-out
Cruzain inh Det – inhibitors of Trypanosoma cruzi cruzain with detergent | P25779 | purified cruzain, Z-FR-AMC fluorescence, 0.01% Triton | Potency, µM, inactives show max response, negative = inhibition, actives largely listed as inhibitors | 200,000 compounds, 0.43% hits | AID 1478; active means well fitted curve in the direction sought with a large enough effect; inconclusive means small, poorly fitted or top-dose-only effect, or another doubt; inactive means no such curve, though single readings can be large; an effect the other way counts as inactive or inconclusive;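 further: plate controls were neutral wells for no effect and buffer without enzyme for full effect; nearly all actives have a fitted effect of over 40% in size; top concentration of the series not given in the record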
Target sequence (P25779 123-467 limits assumed): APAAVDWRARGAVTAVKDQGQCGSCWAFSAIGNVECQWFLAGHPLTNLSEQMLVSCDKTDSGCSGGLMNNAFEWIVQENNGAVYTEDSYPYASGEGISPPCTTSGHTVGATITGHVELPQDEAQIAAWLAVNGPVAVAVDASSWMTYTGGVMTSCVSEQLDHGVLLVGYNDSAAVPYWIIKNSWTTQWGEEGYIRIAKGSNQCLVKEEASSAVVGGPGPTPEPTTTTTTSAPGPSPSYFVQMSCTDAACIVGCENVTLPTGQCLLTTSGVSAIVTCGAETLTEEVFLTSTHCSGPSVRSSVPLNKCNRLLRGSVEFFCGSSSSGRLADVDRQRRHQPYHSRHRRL
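Z-FR-AMC hydrolysis (2 uM substrate) by cruzain (1.5 nM) monitored kinetically at ex 360/em 450 nm after 15 min room-temperature compound exposure; 0.01% Triton X-100, pH 5.5, 5 mM DTT.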
Cruzain noTriton – blocks cruzain activity in detergent-free assay; Potency, µM, for the others: max response, negative = inhibition, actives largely listed as inhibitors; purified cruzain, Z-FR-AMC fluorescence, no detergent; P25779; 200,000 compounds, 2.3% hits; AID 1476; active means well fitted curve in the direction sought with a large enough effect; inconclusive means small, poorly fitted or top-dose-only effect, or another doubt; inactive means no such curve, though single readings can be large; an effect the other way counts as inactive or inconclusive;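 further: plate controls were enzyme without inhibitor for no effect and buffer without enzyme for full effect; nearly all actives have a fitted effect of over 40% in size; top concentration of the series not given in the record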
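Purified cruzain at 1.5 nM, pre-incubated 15 min with compound at room temperature in 100 mM sodium acetate pH 5.5, 5 mM DTT, 0.00005% Triton X-100. Reaction started with 2 uM Z-FR-AMC; AMC fluorescence increase over 60 s gives rate.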
MARV entry inh – Marburg virus entry inhibition | Marburg virus pseudotyped entry inhibition, cell reporter; control for the full effect not named in the record; about a third of the inactives were read at about 46 µM | Potency, µM (doses to about 37.8 µM), inactives show at the top dose activity change, negative = inhibition, actives largely listed as inhibitors | 300,000 compounds, 1.8% hits | AID 540276; active = well fitted inhibition curve with a large enough effect; inconclusive = small, poorly fitted or top-dose-only effect, or effect the other way; inactive = flat fitted curve, though single readings scatter; tested in HEK293 cells; about a fifth of its hits are not listed in these tables; further: on the % scale 0 is the no-effect control and ±100 the full control effect; luciferase read-out
RE007 growth inh – less growth of the S. pombe RE007 Vpr strain; S. pombe RE007 Vpr strain, BacTiter-Glo ATP luminescence, 24 h; control for the full effect not named in the record; Potency, µM (series often up to 92.2 µM), inactives show at the top dose activity change, negative = less growth; 360,000 compounds, 0.21% hits; active = well fitted falling curve with a large enough effect; inconclusive = small, poorly fitted or top-dose-only effect; inactive = no such curve, though single readings can be large or run the other way;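 further: on the % scale 0 is the no-effect control and ±100 the full control effect; nearly all actives have a fitted effect of over 50% in size; the assay follows cell death caused by Vpr and the record does not say whether a fall means rescue or toxicity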
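Fission yeast strain RE007, carrying one chromosomally integrated HIV-1 vpr copy, was seeded at OD 0.01 in PMG+AL medium with 23 nL pinned compound. After 24 h at 30 °C and 99% humidity, viability was read by BacTiter-Glo luminescence.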
NS1 inh – inhibitors of influenza NS1 protein function; S. cerevisiae slowed by influenza A NS1, growth recovery by OD600; Potency, µM (series often up to 46.1 µM), without a hit: at the top dose activity, positive = more growth; 270,000 compounds, 0.4% hits; further: actives are rising curves; nearly all actives have a fitted effect of over 50% in size
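S. cerevisiae expressing influenza A NS1, grown in glucose, washed, then diluted 1:100 into pH 6.0 -URA galactose medium with 23 nl compound. Growth recovery read as OD600; NS1-free strain serves as control.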
SARS PLpro yeast – SARS-CoV PLP inhibition in yeast; S. cerevisiae expressing SARS-CoV PLpro, growth rescue; control for the full effect not named in the record; Potency, µM (highest dose often 32.9 µM), inactives show top-dose activity, positive = growth rescue; 330,000 compounds, 0.19% hits; AID 485353; further: 0% is about no effect; nearly all actives have a fitted effect of over 55% in size; growth read by luminescence after 48 h
The depositor's hits bear a star; ? = inconclusive; / = not tested or not shown; & = joins results of further samples; [ ] = another dose, or the depositor's remark. Unless noted, the call rests on the fitted dose curve; in most records, active means well fitted rising curve with a large enough effect; inconclusive means small, poorly fitted or top-dose-only effect; inactive means no such curve, though single readings can be large or run the other way. Potency means the concentration at half of the fitted maximal effect. Compounds as they come, and some 4.7% of all compounds hit somewhere here.

#	canonical_smiles	StopGo reporter	LASV entry inh	Cruzain inh Det	Cruzain noTriton
1	CCOC(=O)c1cnc2c(ccc3ccccc32)c1NCCN(C)C	17%	/	/	/
2	CCN(CC)S(=O)(=O)c1cccc(C(=O)N/N=C2\CC(=O)CC(C)(C)C2)c1	-3%	11%	/	/
3	CN(C1CC(C)(C)N(O)C(C)(C)C1)S(=O)(=O)CC12CCC(CC1=O)C2(C)C (stereo not given)	-5%	?	/	/
4	O=C1NC(=S)NC(=O)C1=Cc1ccc2c(c1)CCN2CCCCl	?	/	/	/
5	Cc1ccc(-c2cc(C(=O)NCC3CCCO3)c3ccccc3n2)cc1C (stereo not given)	12%	7%	/	/
6	COc1ccccc1N1CCN(C(=O)c2oc3c(c2C)C(=O)CC(C)(C)C3)CC1	-13%	/	/	/
7	CC(C)(CN1CCN(Cc2ccccc2)CC1)NS(=O)(=O)c1ccccc1	-1%	-8%	/	/
8	C=CCNS(=O)(=O)c1sccc1/C=N/O	70%[activator]	3%	-0.1%	0%
9	Nc1nonc1-n1nnc(C(=O)N/N=C/c2cccc(Cl)c2Cl)c1CN1CCCC1	-2%	13%[46.1 µM]	/	/
10	CCN1CCN(CC(=O)Nc2cc(S(=O)(=O)N3CCCCC3)ccc2Cl)CC1	-3%	-4%[46.1 µM]	/	/

#	MARV entry inh	RE007 growth inh	NS1 inh	SARS PLpro yeast
1	/	-3%	-15%	-7%
2	-17%[14.2 µM]	18%	/	3%
3	-1%[46.1 µM]	8%	/	-1%
4	/	-10%	0%	5%
5	18%[46.1 µM]	11%	/	-4%
6	/	1%	-3%	24%
7	?	16%	-3%	0%
8	?	12%	1%	-2%
9	-3%[46.1 µM]	7%	3%	-2%
10	?	-12%	/	-18%

Continued, overlapping the part above by two compounds.
#	canonical_smiles	StopGo reporter	LASV entry inh	Cruzain inh Det	Cruzain noTriton
9	Nc1nonc1-n1nnc(C(=O)N/N=C/c2cccc(Cl)c2Cl)c1CN1CCCC1	-2%	13%[46.1 µM]	/	/
10	CCN1CCN(CC(=O)Nc2cc(S(=O)(=O)N3CCCCC3)ccc2Cl)CC1	-3%	-4%[46.1 µM]	/	/
11	CCOc1cc(C2NC(=O)c3ccccc3O2)ccc1OC(C)C (stereo not given)	-9%	/	/	/
12	COc1ccc(NC(=O)Cn2c(=O)cc(C)c3c(C)nn(C)c32)cc1	0%	-6%[46.1 µM]	1.5%	-8%
13	CC(C)(C)c1ccc(/C=C2\Oc3c(ccc(O)c3CN3CCN(CCO)CC3)C2=O)cc1	-26%	/	/	/
14	CCOc1cccc(CNCCO)c1OCc1ccc(Cl)cc1Cl	?	-25%	-0.3%	-15%
15	CCN1C(=NCC(C)C)N[C@@H](CCc2ccccc2)[C@H](C(=O)NCC(C)C)[C@H]1C	-23%	/	/	/
16	COc1cc(Cl)c(CN2CCCC(CO)(Cc3cccc(Cl)c3)C2)cc1OC (stereo not given)	-24%	/	/	/
17	CN(CC(=O)NC1CCCCC1)S(=O)(=O)c1cccc2nsnc12	15%	-3%	-2.8%	-3%
18	COc1ccc2[nH]c(C(=O)O)c(CCC(=O)O)c2c1	11%	11%	-5.8%	5%
19	Cc1nn(C)c(=O)n1-c1ccccc1	3%	7%	/	/
20	Cc1nn(C(=O)CCCC(=O)NCc2ccccc2)c2ccccc12	-1%	/	/	/

#	MARV entry inh	RE007 growth inh	NS1 inh	SARS PLpro yeast
9	-3%[46.1 µM]	7%	3%	-2%
10	?	-12%	/	-18%
11	/	6%	17%	0%
12	/	/	/	/
13	/	-19%	5%	-2%
14	?	20%	-4%	9%
15	/	-28%	-1%&9%	4%&-8%
16	/	6%	2%	-5%
17	29%	2%	-2%	5%
18	27%	9%	19%	-3%
19	6%[46.1 µM]	9%	/	-7%
20	/	-2%	1%	-2%

Next part
#	canonical_smiles	StopGo reporter	LASV entry inh	Cruzain inh Det	Cruzain noTriton
21	Cc1ccc(Nc2ncc3c(n2)CC(c2ccco2)CC3=O)c(C)c1 (stereo not given)	-17%	?	-5.4%	-1%
22	CCC(c1nnnn1Cc1cccs1)N1CCN(c2nc3ccccc3s2)CC1 (stereo not given)	?	-14%	-2.8%	?
23	O=C(CN1CCN(C(=O)c2cccc(F)c2)CC1)Nc1ccccc1F	-20%	-14%	3.3%	13%
24	CCCCC(CC)CN1C(=O)/C(=C/c2ccncc2)SC1=S (stereo not given)	-11%	1%	5.1%	?
25	O=C1c2ccccc2-c2ccc(C(=O)N3CCCCC3)cc21	80%[activator]	-2%	/	/
26	O=C(CSc1nnc(CNC(=O)c2cccs2)o1)Nc1ccc(Cl)cc1	-9%	1%[46.1 µM]	/	/
27	O=C(CCn1c(=O)oc2ccccc21)NCCC1=CCCCC1	8%	/	/	/
28	COc1cccc(NC(=O)CSc2ncnc3c2oc2ccccc23)c1	-16%	/	-4.4%	22%
29	COc1cc2c(cc1OC)C(c1ccc(Cl)cc1)CC(=O)N2 (stereo not given)	-25%	/	/	/
30	CCc1ccc(C(=O)CN2CCSC2=N)cc1	10%	?	-6.0%	-6%

#	MARV entry inh	RE007 growth inh	NS1 inh	SARS PLpro yeast
21	8%	3%	-51%	-2%
22	?	-3%	4%	-7%
23	28%	-26%	-6%	-9%
24	5%	8%	0%	9%
25	?	5%	-10%	0%
26	26%[46.1 µM]	-1%	-7%	?
27	/	-1%	-4%	0%
28	/	13%	-2%	4%
29	/	-6%	2%	-4%
30	?	-15%	-19%	-29%

Rewritten with tabs: entries from further up
entry	compound	StopGo reporter	LASV entry inh	Cruzain inh Det	Cruzain noTriton	MARV entry inh	RE007 growth inh	NS1 inh	SARS PLpro yeast
20	Cc1nn(C(=O)CCCC(=O)NCc2ccccc2)c2ccccc12	-1%	/	/	/	/	-2%	1%	-2%
21	Cc1ccc(Nc2ncc3c(n2)CC(c2ccco2)CC3=O)c(C)c1 (stereo not given)	-17%	?	-5.4%	-1%	8%	3%	-51%	-2%
22	CCC(c1nnnn1Cc1cccs1)N1CCN(c2nc3ccccc3s2)CC1 (stereo not given)	?	-14%	-2.8%	?	?	-3%	4%	-7%
23	O=C(CN1CCN(C(=O)c2cccc(F)c2)CC1)Nc1ccccc1F	-20%	-14%	3.3%	13%	28%	-26%	-6%	-9%
24	CCCCC(CC)CN1C(=O)/C(=C/c2ccncc2)SC1=S (stereo not given)	-11%	1%	5.1%	?	5%	8%	0%	9%
25	O=C1c2ccccc2-c2ccc(C(=O)N3CCCCC3)cc21	80%[activator]	-2%	/	/	?	5%	-10%	0%
26	O=C(CSc1nnc(CNC(=O)c2cccs2)o1)Nc1ccc(Cl)cc1	-9%	1%[46.1 µM]	/	/	26%[46.1 µM]	-1%	-7%	?
27	O=C(CCn1c(=O)oc2ccccc21)NCCC1=CCCCC1	8%	/	/	/	/	-1%	-4%	0%

(next part)
#	canonical_smiles	StopGo reporter	LASV entry inh	Cruzain inh Det	Cruzain noTriton
31	CCn1c(CC(=O)Nc2ccc(F)cc2)nnc1SCC(=O)Nc1nncs1	-16%	-2%[46.1 µM]	/	/
32	O=C(NCC(c1cccnc1)N1CCc2ccccc21)c1cccc(C(F)(F)F)c1 (stereo not given)	-5%	1%[46.1 µM]	-2.4%	10%
33	CC(C)=CCCC1=CCC(/C(C)=N/NC(N)=O)CC1 (stereo not given)	30%[activator]	-9%	-4.0%	-6%
34	COc1ccc(CNC(=S)Nc2cc(C)ccc2C)cc1	3%	-20%	0.2%	1%
35	O=C(CSCc1ccccc1)Nc1ccc(S(=O)(=O)Nc2ncccn2)cc1	-11%	1%	/	/
36	COc1ccc(S(=O)(=O)Nc2cccc(-c3ccc(N4CCCC4)nn3)c2)cc1OC	16%	-28%[46.1 µM]	-4.0%	5%
37	CCOC(=O)C1(CCCc2ccccc2)CCN(C(=O)C2CCCO2)CC1 (stereo not given)	-18%	?	/	/
38	COc1ccc(N2CCN(C(=O)CCc3c(C)nc4cc(-c5cccc(F)c5)nn4c3C)CC2)cc1	-25%	24%[46.1 µM]	1.3%	5%
39	CSc1ccccc1-n1nnnc1SCC(=O)NCc1cccs1	11%	?	-2.1%	5%
40	Cc1nc(-c2ccc(Cl)cc2)sc1C(=O)NN	9%	?	/	/

#	MARV entry inh	RE007 growth inh	NS1 inh	SARS PLpro yeast
31	4%[46.1 µM]	-5%	2%	1%
32	/	/	/	/
33	-11%	11%	2%	5%
34	-14%	7%	-4%	-7%
35	5%	5%	15%	-2%
36	/	/	/	/
37	?	22%	-6%	-1%
38	17%[46.1 µM]	/	/	/
39	?	-22%	-35%	-16%
40	?	1%	3.5µM*	1%

Further structures follow:
#	canonical_smiles	StopGo reporter	LASV entry inh	Cruzain inh Det	Cruzain noTriton
41	O=c1[nH]cnc2scc(C3COc4ccccc4O3)c12 (stereo not given)	26%	5%	-4.5%	17%
42	COc1cc(NC(C)=O)ccc1NC(=O)c1cc2ccccc2o1	54%[activator]	/	/	/
43	CC(C)(C)NCc1cccn1-c1sc2c(c1C#N)CCCC2	-9%	12%	4.4%	-1%
44	O=C(Nc1ccc2c(c1)Cc1ccccc1-2)c1ccco1	/	?	-3.1%	-12%
45	O=C(NCc1ccco1)C1CCCN1S(=O)(=O)c1ccccc1C(F)(F)F (stereo not given)	-15%	/	/	/
46	O=C(COC(=O)C1CC(=O)N(c2ccccc2)C1)c1ccccc1 (stereo not given)	4%	/	1.7%	0%
47	Cc1ccccc1OCC(=O)N/N=C1\CCOc2c(C)cccc21	42%[activator]	0%	1.0%	2%
48	CCc1nnc(NC(=O)c2nc(SC)ncc2Cl)s1	-14%	16%[46.1 µM]	3.1%	2%

#	MARV entry inh	RE007 growth inh	NS1 inh	SARS PLpro yeast
41	?	-1%	-42%	-9%
42	/	10%	4%	12%
43	?	0%	?	1%
44	-28%	6%	-62%	-42%
45	/	-19%	3%	-3%
46	/	-7%	-28%	-12%
47	?	0%	-12%	-8%
48	4%[46.1 µM]	/	/	/
